Source: PubChem
NS1 function inh: inhibitors of influenza NS1 protein function | S. cerevisiae slowed by influenza A NS1, growth recovery by OD600 | Potency, µM (top dose mostly 46.1 µM), for inactives: at the highest dose activity, positive = more growth | 270,000 tested, 0.4% active | AID 2326; active means well fitted rising curve with a large enough effect; inconclusive means small, poorly fitted or top-dose-only effect; inactive means no such curve, though single readings can be large or run the other way; further: nearly all actives have a fitted effect of over 50% in size
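OD600 was taken as the measure of yeast growth restored by compound in an NS1-expressing S. cerevisiae strain. Cells had been washed out of glucose medium and diluted 1:100 into galactose -URA medium, pH 6.0.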
RE007 growth inh: less growth of the S. pombe RE007 Vpr strain; S. pombe RE007 Vpr strain, BacTiter-Glo ATP luminescence, 24 h; control for the full effect not named in the record; Potency, µM (titrated, usually from 92.2 µM), for inactives: at the highest dose activity change, negative = less growth; 360,000 tested, 0.21% active; active = well fitted falling curve with a large enough effect; inconclusive = small, poorly fitted or top-dose-only effect; inactive = no such curve, though single readings can be large or run the other way;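 further: on the % scale 0 is the no-effect control and ±100 the full control effect; nearly all actives have a fitted effect of over 50% in size; the assay follows cell death caused by Vpr and the record does not say whether a fall means rescue or toxicity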
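Fission yeast strain RE007, carrying one chromosomally integrated HIV-1 vpr copy, was seeded at OD 0.01 in PMG+AL medium with 23 nL pinned compound. After 24 h at 30 °C and 99% humidity, viability was read by BacTiter-Glo luminescence.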
2A StopGo: FMDV 2A StopGo reporter, luciferase signal | Potency, µM (top dose mostly 57.9 µM), for the others: at the top dose signal change, negative = less light | 410,000 tested, 1.2% active | human cells with a luciferase reporter of 2A StopGo recoding; control for the full effect not named in the record; active = well fitted falling curve with a large enough effect; inconclusive = small, poorly fitted or top-dose-only effect; inactive = no such curve, though single readings can be large or run the other way; tested in HEK293T cells; further: on the % scale 0 is the no-effect control and ±100 the full control effect; nearly all actives have a fitted effect of over 45% in size; luciferase light after 4 h
SARS PLP yeast: SARS-CoV PLP inhibition in yeast | S. cerevisiae expressing SARS-CoV PLpro, growth rescue; control for the full effect not named in the record | Potency, µM (doses to about 32.9 µM), without a hit: at the top dose activity, positive = growth rescue | 330,000 tested, 0.19% active; active means well fitted rising curve with a large enough effect; inconclusive means small, poorly fitted or top-dose-only effect; inactive means no such curve, though single readings can be large or run the other way; further: 0% is about no effect; nearly all actives have a fitted effect of over 55% in size; growth read by luminescence after 48 h
Cruzain noTriton: blocks cruzain activity in detergent-free assay; purified cruzain, Z-FR-AMC fluorescence, no detergent; Potency, µM, without a hit: max response, negative = inhibition, hits mostly inhibitors; 200,000 tested, 2.3% active; AID 1476;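 further: plate controls were enzyme without inhibitor for no effect and buffer without enzyme for full effect; nearly all actives have a fitted effect of over 40% in size; top concentration of the series not given in the record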
Target sequence (P25779 123-467 limits assumed): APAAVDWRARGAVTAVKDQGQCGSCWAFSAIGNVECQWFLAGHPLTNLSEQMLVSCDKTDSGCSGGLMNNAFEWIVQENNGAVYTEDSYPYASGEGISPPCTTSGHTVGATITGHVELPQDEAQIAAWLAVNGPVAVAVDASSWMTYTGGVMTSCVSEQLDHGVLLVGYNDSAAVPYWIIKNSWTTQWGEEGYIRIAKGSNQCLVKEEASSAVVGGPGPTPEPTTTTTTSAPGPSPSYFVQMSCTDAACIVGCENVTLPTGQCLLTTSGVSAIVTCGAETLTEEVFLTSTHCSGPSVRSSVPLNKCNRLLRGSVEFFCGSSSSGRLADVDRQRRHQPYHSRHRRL
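Detergent-free condition (0.00005% Triton X-100) in acetate buffer pH 5.5 with DTT. 1.5 nM enzyme and compound were pre-mixed 15 min, then 2 uM Z-FR-AMC substrate added; reaction progress from fluorescence change between first and third reads (60 s).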
MARV entry inh: Marburg virus entry inhibition | Marburg virus pseudotyped entry inhibition, cell reporter; control for the full effect not named in the record; about a third of the inactives were read at about 46 µM | 300,000 tested, 1.8% active | AID 540276 | Potency, µM (doses to about 37.8 µM), for inactives: top-dose activity change, negative = inhibition, actives largely listed as inhibitors; active = well fitted inhibition curve with a large enough effect; inconclusive = small, poorly fitted or top-dose-only effect, or effect the other way; inactive = flat fitted curve, though single readings scatter; tested in HEK293 cells; about a fifth of its hits are not listed in these tables; further: on the % scale 0 is the no-effect control and ±100 the full control effect; luciferase read-out
LASV entry inh: blocks Lassa virus binding to or entry into cells; Lassa virus pseudotype entry inhibition, cell reporter; control for the full effect not named in the record; Potency, µM (top dose mostly 37.9 µM), without a hit: at the highest dose activity change, negative = inhibition, actives largely listed as inhibitors; 300,000 tested, 1.2% active; AID 540256; active means well fitted inhibition curve with a large enough effect; inconclusive means small, poorly fitted or top-dose-only effect, or effect the other way; inactive means flat fitted curve, though single readings scatter; tested in HEK293 cells; further: on the % scale 0 is the no-effect control and ±100 the full control effect; nearly all actives have a fitted effect of over 50% in size; luciferase read-out
Cruzain Triton: cruzain (T. cruzi) inhibition with detergent; Potency, µM, for the others: max response, negative = inhibition, hits mostly inhibitors; 200,000 tested, 0.43% active; P25779; purified cruzain, Z-FR-AMC fluorescence, 0.01% Triton;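 further: plate controls were neutral wells for no effect and buffer without enzyme for full effect; nearly all actives have a fitted effect of over 40% in size; top concentration of the series not given in the record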
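Detergent-containing run (0.01% Triton X-100) in acetate buffer pH 5.5 with 5 mM DTT: enzyme at 1.5 nM final, 15 min compound preincubation at room temperature, then 2 uM Z-FR-AMC substrate. Activity taken as 60 s fluorescence increase at 360/450 nm.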
Active calls of the source: *; ? = inconclusive; / = no result given; & = joins results of further samples; [ ] = another dose, or the depositor's remark. Unless noted, the call rests on the fitted dose curve; in most records, active means well fitted curve in the direction sought with a large enough effect; inconclusive means small, poorly fitted or top-dose-only effect, or another doubt; inactive means no such curve, though single readings can be large; an effect the other way counts as inactive or inconclusive. Potency means the concentration at half of the fitted maximal effect.

SMILES | NS1 function inh | RE007 growth inh | 2A StopGo | SARS PLP yeast | Cruzain noTriton | MARV entry inh | LASV entry inh | Cruzain Triton
COc1ccc2nc(/C=N/NC(=O)[C@H](C)NC(=O)OC(C)(C)C)ccc2c1 | 2% | / | / | 17% | 32µM* | 28% | 11% | -24%
O=C1C2CCCN2C(c2cccc(Cl)c2)N1c1ccccn1 (stereo not given) | ? | 0% | -11% | 1% | -6% | 7% | -1% | 0.7%
CC(C)Oc1ccccc1OCCCOc1cccc2cccnc12 | / | -10% | -8% | -5% | / | ? | -20%[46.1 µM] | /
Clc1cccc(Cl)c1CNCCCSc1ncccn1 | 11% | -21% | 8% | -1% | / | / | / | /
COCCNC(=O)CCn1nc(-c2ccc(C)cc2)c2ccccc2c1=O | -3% | 5% | -17% | 0% | / | -7%[46.1 µM] | -5%[46.1 µM] | /
O=C(Cc1ccc(Br)cc1)Nc1nc2ccccc2[nH]1 | -10% | 1% | 54%[activator] | -1% | / | / | / | /
O/N=C/c1cc(Br)ccc1OCc1ccccc1F | / | 40µM* | 3% | / | / | -17%[46.1 µM] | 25% | /
Cc1nc(N2CCCC2)ncc1C(=O)N1CCN(c2ccc(Cl)cc2)CC1 | / | / | -23% | / | ? | / | 15%[46.1 µM] | -8.4%
CCOc1ccccc1C=NNC(=O)CCCCC(=O)NN=Cc1ccccc1OCC | / | 9% | -6% | / | / | -9% | -6% | /
COc1ccc(NS(=O)(=O)c2ccc3nc(-c4ccccc4)[nH]c3c2)cc1 | / | / | -2% | / | -1% | -16%[46.1 µM] | ? | -10%
CC(C(=O)NCc1ccccn1)N1C(=O)c2ccccc2C1=O (stereo not given) | 7% | -3% | -15% | 6% | -10% | / | 12% | -2.6%
O=C(Cc1c(F)c(F)c(F)c(F)c1F)OC12CC3CC(C1)C(=O)C(C3)C2 | 5% | 21% | / | -11% | -9% | 4% | -9% | -3.5%
CCN(CC(=O)NCc1cccs1)C(=O)CCOc1ccccc1 | / | -3% | 11% | -1% | / | -7% | -2% | /
CCOC(=O)/C(C#N)=C/C1=C(N2CCCC2)CC(C)(C)OC1 | 7% | 17% | -8% | 4% | 3% | ? | -2% | -3.1%
Cc1cc(O)c(C(C)C)cc1NC(=S)Nc1cc(C(C)C)c(O)cc1C | / | -1% | 33%[activator] | / | / | ? | ? | /
CCN(c1ccccc1)S(=O)(=O)c1ccc(C(=O)Nc2nnc(COC)o2)cc1 | -15% | 9% | -17% | -4% | ? | -23% | -13% | 6.2%
COc1ccc(-c2nnc(SCC(=O)Nc3sc4c(c3C#N)CCCC4)n2-c2ccccc2)cc1 | 1% | 23% | -13% | 13% | ? | -1% | -11% | -2.8%
CC(=O)Nc1ccc(N(C(=O)Cn2nnc3ccccc32)C(C(=O)NC2CCCC2)c2ccc(O)c(O)c2)cc1 (stereo not given) | -6% | -9% | 5% | 1% | / | 11%[46.1 µM] | 12%[46.1 µM] | /
Cc1ccccc1-n1c(-c2ccc(=O)[nH]n2)n[nH]c1=S | 6% | -18% | 12% | 0% | / | 6%[46.1 µM] | 30%[46.1 µM] | /
COc1ccc(C(C(=O)NCc2ccc(F)cc2)N(Cc2cccnc2)C(=O)c2snc(C(N)=O)c2N)cc1 (stereo not given) | -2% | -3% | -20% | 0% | / | -2%[46.1 µM] | ? | /
CCc1ccc(-n2nc(C)c3c(C(=O)NCCc4ccc(OC)c(OC)c4)cc(C)nc32)cc1 | / | / | ? | / | ? | / | ? | -9.2%
Cc1ccc(OCC(=O)NCCCNC(=O)c2ccco2)cc1C | 16% | -15% | 10% | 0% | / | 19%[46.1 µM] | -1%[46.1 µM] | /
CCCn1c(C(O)c2ccc(OC)cc2)nc2ccccc21 (stereo not given) | 1% | 23% | -17% | 2% | 13% | 11%[46.1 µM] | 1% | -3.0%
CCC1CN(C(=O)NCc2ccccc2)c2cc(Cl)ccc2O1 (stereo not given) | -2% | 6% | -6%&-3% | -2% | 17% | / | -11%[46.1 µM] | -2.7%
COc1ccc(C(=O)NNC(=O)CN2CCC(n3nnc4cc(F)ccc43)CC2)cc1 | 10% | 2% | -6% | 3% | 7% | ? | 3% | 0.6%
Cc1c(C=O)c(=O)n(-c2ccccc2)n1-c1ccccc1 | 2% | -5% | -15% | -9% | 6% | ? | 6% | 2.0%
Cc1ccc(NC2OC(CO)C(O)C2O)cc1[N+](=O)[O-] (stereo not given) | 6% | -9% | -20% | -23% | -1% | 1% | -2% | -4.8%
CCOC(=O)c1ccccc1OCc1cc(/C=N/n2cnnc2)ccc1OC | 12% | 7% | ? | ? | ? | 0.1µM* | -20% | 4.8%
CCC1CCCCN1C(=O)CN1C(=O)c2ccccc2S1(=O)=O (stereo not given) | / | -18% | 16% | -1% | / | -2%[46.1 µM] | ? | /
O=C(Nc1cccc(F)c1)c1cc(S(=O)(=O)N2CCOCC2)cs1 | 2% | -4% | -25% | 0% | / | -6%[46.1 µM] | -2% | /
COc1ccc(S(=O)(=O)c2c(N)n(Cc3ccco3)c3nc4ccccc4nc23)cc1 | ? | -3% | 70%[activator] | 1% | 2% | 5% | 15% | -2.4%
O=C(NCc1ccccn1)Nc1ccccc1 | 0% | -7% | 47%[activator] | 0% | / | ? | 1%[46.1 µM] | /
CN(Cc1ccccc1)c1nc(N)c([N+](=O)[O-])c(Nc2cccc(F)c2)n1 | 4% | 0%[3.69 µM] | -20% | -3% | -15% | -6% | -24% | -1.6%
Cc1sc2nc(CN(Cc3ccccc3)C(=O)NC3CCCCC3)[nH]c(=O)c2c1C | / | 7% | -21% | / | / | -13% | -9% | /
O=S(=O)(c1cccc(Br)c1)N1CCN(C(=S)NCC2CCCO2)CC1 (stereo not given) | / | -7% | 26% | 3% | / | -20% | -6% | /
Cc1cccc(NC(=O)COC(=O)CNC(=O)C2CCCCC2)c1 | 2% | -3% | 5% | ? | 7.9µM* | -6%[46.1 µM] | 19% | 7.1µM*
Cc1cc(OCCN2CCOCC2)ccc1C(C)C | 8% | -1% | 59%[activator] | 1% | / | 50% | ? | /
Cc1ccc(N(CC(=O)N/N=C/c2cc(C)n(-c3ccccc3)c2C)S(C)(=O)=O)c(C)c1 | 9% | 3% | -3% | 4% | -3% | ? | -40% | -2.8%
CCSC(=N)N | -7% | 2%[18.4 µM] | -14%&-10%&-1% | / | 2%&-4%&3% | ? | 15% | 2.5%&3.1%&1.1%
COc1cccc(/C=N/NC(=O)CNC(=O)C2COc3ccccc3O2)c1O (stereo not given) | 0% | 3% | -19% | 22% | -3% | ? | ? | -5.0%
CCN(CCCNC(=O)COc1cc(=O)n(C)c2ccccc12)c1ccccc1 | -20% | 1%[3.69 µM] | -2% | 11% | 5% | 1% | ? | 2.0%
N#C/C(=N/Nc1ccc(OC(F)(F)F)cc1)C(N)=S | -78% | 28% | 10% | -7% | / | / | / | /
COc1ccc(CC(=O)O/N=C(\N)c2ccccn2)cc1 | 1% | -4% | 22% | 0% | / | ? | 15%[46.1 µM] | /
CCN1CCN(c2ncc(C(=O)Nc3c(F)cc(F)cc3Br)c3ccccc23)CC1 | -2% | -17% | -31% | 7% | -4% | ? | ? | -1.2%
CCn1c(Oc2ccc(F)cc2F)nc2c1c(=O)n(C)c(=O)n2C | / | / | -28% | / | -3% | -2%[46.1 µM] | 19%[46.1 µM] | 1.1%
CCN(C(=O)CSc1nnnn1-c1ccccc1)C1CCS(=O)(=O)C1 (stereo not given) | / | 17% | 5% | 2% | / | ? | 13% | /
COc1cccc(N2CCc3c(C)nc4ccc(Cl)cc4c32)c1 | -43% | 9% | ? | -2% | / | 11µM* | ? | /
N/C(=N\OC(=O)CC1CCCCC1)c1cccnc1 | 0% | -2% | 60%[activator] | -7% | -6% | 2% | ? | -2.6%
CC(=O)Nc1cccc(NS(=O)(=O)c2ccccc2[N+](=O)[O-])c1 | 2% | -18% | 2% | 1% | / | 9%[46.1 µM] | 0%[46.1 µM] | /
COc1ccc(Cl)cc1NC(=O)c1c(NCc2sccc2C)sc2c1CCCC2 | / | / | -18% | / | -29% | / | 4%[46.1 µM] | -12%
C/C(CC(=O)Nc1ccc(F)cc1)=N\NC(=O)Cc1csc(N)n1 | 11% | -7% | -6% | -3% | 7% | ? | 8% | -1.0%
CCOc1ccc(N2CC(C(=O)NCCc3c[nH]c4ccc(C)cc34)CC2=O)cc1 (stereo not given) | 12% | -2% | -23% | 1% | / | -8%[46.1 µM] | -15% | /
Cc1ccc2c(CC(=O)Nc3c(C(=O)Nc4cccc(Cl)c4)oc4ccccc34)coc2c1C | / | / | 0% | / | ? | 14%[46.1 µM] | 3%[46.1 µM] | -2.1%
CCOC(=O)C1CCN(C(=O)Cn2ncc3c([nH]c4ccc(C)cc43)c2=O)CC1 | / | / | -5% | / | 6% | / | ? | 0.7%
O=C(CCS(=O)(=O)c1ccc(Br)cc1)Nc1ccc(Cl)cc1F | 23% | 15% | -6% | ? | -1% | -13% | -7% | 0.3%
CCCCCC(=O)NC(=S)NNC(=O)CC | -8% | 29% | / | 3% | 2% | -1% | -16% | 2.6%
CCC1(CC)NC(=O)N(CC(=O)Nc2sc3c(c2C(N)=O)CCC3)C1=O | 10% | -16% | 62%[activator] | 7% | -16% | ? | 29% | -14%
N#Cc1c(N)n(Cc2ccccc2)c(=O)c2cc([N+](=O)[O-])ccc12 | 4% | 1% | -25% | 1% | / | -18% | 0% | /
O=C1NC(=S)N(c2ccc(Cl)cc2)C(=O)/C1=C/N1CCN(C(=O)c2ccco2)CC1 | 8% | -20% | -23% | 0% | -8% | -8% | -9% | -1.9%
N#Cc1ccccc1OCC(=O)NNC(=O)CNC(=O)c1ccc(Br)o1 | / | 6% | -16% | 1% | / | 9% | -1% | /
COCCn1c(CN(C)Cc2ccccc2)nc2c1c(=O)n(C)c(=O)n2C | -7% | -1% | -14% | -2% | -1% | / | / | 2.0%
CC(C)(C)C1CCC2(CC1)CC(=O)c1ccccc1O2 (stereo not given) | -2% | -7% | -7% | -3% | / | / | / | /
O=C(COc1ccc(Cl)cc1)Nc1cc(-c2ccccc2)no1 | / | / | 17% | / | ? | -3%[46.1 µM] | 10%[46.1 µM] | -1.6%
